PABP FP inh: PABP-poly(A) binding inhibition; inhibition, % at 35 µM; 1% of 290,000 active; PABP-poly(A) RNA binding, fluorescence polarization; P11940;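 active means 50% or more with normal probe brightness, or confirmed in later tests; about a fifth of its hits are not listed in these tables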;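 further: calls also rest on retests at 20 µM and on dose response follow-up; controls were probe without protein and protein plus probe with vehicle; some compounds called inactive have numbers as strong as hits; many hits fall short of the cut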
Target sequence (P11940 whole entry, looked up): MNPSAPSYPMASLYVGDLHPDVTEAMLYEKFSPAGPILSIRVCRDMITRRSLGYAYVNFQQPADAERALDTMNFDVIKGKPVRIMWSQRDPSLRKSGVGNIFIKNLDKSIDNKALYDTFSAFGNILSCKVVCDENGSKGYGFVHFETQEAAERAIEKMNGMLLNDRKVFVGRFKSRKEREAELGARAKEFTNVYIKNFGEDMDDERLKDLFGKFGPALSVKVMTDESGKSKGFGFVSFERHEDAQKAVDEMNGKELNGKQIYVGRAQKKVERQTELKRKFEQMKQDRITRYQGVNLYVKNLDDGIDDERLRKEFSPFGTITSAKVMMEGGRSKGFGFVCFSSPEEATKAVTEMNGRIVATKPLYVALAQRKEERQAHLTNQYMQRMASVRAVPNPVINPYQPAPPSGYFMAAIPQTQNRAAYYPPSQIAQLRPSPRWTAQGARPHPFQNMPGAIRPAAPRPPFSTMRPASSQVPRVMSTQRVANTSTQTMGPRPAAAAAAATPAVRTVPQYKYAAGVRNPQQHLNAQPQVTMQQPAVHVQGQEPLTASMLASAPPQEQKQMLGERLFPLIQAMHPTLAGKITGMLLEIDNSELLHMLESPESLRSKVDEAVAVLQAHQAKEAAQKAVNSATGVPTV
HIV Env fusion: blocks HIV Env-driven cell-cell fusion; HeLa-JRFL Env/CEM21 cell fusion, luciferase; inhibition, % at 12.3 µM; 1.1% of 360,000 active; AID 651610;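 active means mean replicate inhibition score of at least 50 and every replicate individually at or above 50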;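 further: 0% = plate neutral controls and 100% = maraviroc near 300 nM; one replicate is shown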
MT1-MMP act inh: inhibitors of human MT1-MMP activation | HT1080 RFP-PRO-GFP cells, GFP/RFP ratio fluorescence, overnight; percent of plate control window, DMSO zero | GFP/RFP ratio change, % at 20 µM | 0.061% of 360,000 active | AID 651647;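 active means GFP/RFP ratio change of at least 30% with cell ATP level not reduced by more than half and red fluorescence within 50% of control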; further: strong numbers were not always called active
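Assay system: RFP-PRO-GFP reporter HT1080 cells; read-out basis: GFP/RFP fluorescence ratio; benchmarks: DMSO wells and RFP-L50D-GFP cells; doses: 20 µM single dose, 1% DMSO; schedule: overnight cell settling, then overnight compound exposure, 37 °C, 5% CO2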
CSC inhib: cancer stem cell inhibition | AID 2717 | inhibition, % at 7.5 µM | 1.1% of 300,000 active | cancer stem cell-like cells viability, luminescence;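 active means mean at 75% or more and at least half the replicates too; tested in HMLE shEcad cells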;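 further: 0% = median of negative and 100% = median of positive control wells; the first replicate is given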
Yeast UUG start: alters start codon recognition fidelity in yeast; activity score, % at 18.7 µM; S. cerevisiae UUG-firefly luciferase reporter, luminescence/redox ratio; 0.13% of 350,000 active; AID 602363;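 active means replicate mean at a twofold rise or more, about +100% in these data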;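 further: firefly luciferase made from a UUG start codon reports start codon fidelity; reporter light over untreated wells divided by growth signal over untreated wells; some hits fall short of that in this replicate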
Rce1 inhib: blocks yeast Ras-converting enzyme; yeast membranes, quenched prenylated peptide cleavage fluorescence; calls only; 0.27% of 290,000 active;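 active means fall in fluorescence gain of 50% or more versus controls, with final raw signal at or below 3038400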;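 further: plate controls were neutral control wells for no effect and wells lacking membranes for full effect; tested at 10 µM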
Target sequence (Q03530 whole entry, looked up): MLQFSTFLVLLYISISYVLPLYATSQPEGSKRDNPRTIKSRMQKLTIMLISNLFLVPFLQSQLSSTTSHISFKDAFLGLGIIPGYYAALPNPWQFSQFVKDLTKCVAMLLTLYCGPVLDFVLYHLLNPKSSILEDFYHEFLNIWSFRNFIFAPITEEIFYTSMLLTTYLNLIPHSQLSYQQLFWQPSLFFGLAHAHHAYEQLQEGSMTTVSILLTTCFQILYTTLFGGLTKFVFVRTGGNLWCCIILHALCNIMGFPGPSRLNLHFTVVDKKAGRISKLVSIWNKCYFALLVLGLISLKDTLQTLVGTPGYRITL
eIF4H FP inh: inhibitors of RNA binding by human eIF4H; Q15056; eIF4H fluorescence polarization binding assay; inhibition, % at 35 µM; 0.94% of 290,000 active; AID 2012;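 active means 50% or more with normal probe brightness, or confirmed in later tests; about a fifth of its hits are not listed in these tables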;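 further: calls also rest on retests at 20 µM and on dose response follow-up; 0% = protein and probe with vehicle and 100% = probe without protein; strong numbers were not always called active; many hits fall short of the cut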
eIF4H FP inh retest: also measured in eIF4H FP inh; calls as there; inhibition, %; compound at 20 µM; confirmation average;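 mean of two retest wells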
PABP FP inh retest: recorded beside PABP FP inh, whose call it bears; inhibition, %; compound at 20 µM; confirmation repeats;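 mean of two retest wells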
MT1-MMP act inh RFP: recorded beside MT1-MMP act inh, whose call it bears; RFP signal change, %; measured here: RFP expression control read;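 0 = vehicle wells; hits needed this value within 50% of zero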
An asterisk follows results filed as active; i = inactive; x = not tested or not shown; & = joins results of further samples; [ ] = another dose, or the depositor's remark.

SMILES	PABP FP inh	HIV Env fusion	MT1-MMP act inh	MT1-MMP act inh RFP	CSC inhib	Yeast UUG start	Rce1 inhib	eIF4H FP inh	others
Cc1nc2sccn2c(=O)c1S(=O)(=O)NC(C)c1ccccc1 (stereo unspecified)	-11	19	-1	4	x	3	i	-4
O=C1C(Cc2ccccc2)SC(=Nc2ccccc2)N1c1ccccc1 (stereo unspecified)	0	x	-4	-4	1	2	i	9
Cn1ccs/c1=N\C(=O)Nc1ccccc1	-13	-11	-1	-2	-1	-2	i	-9
CCOc1ccc(CCNC(=O)CN2C(=O)c3cccnc3Oc3ccc(C)cc32)cc1OCC	0	7	2	-1	x	-3	i	4
COc1c(C(C)C)cc(NC(C)=O)cc1C(C)C	-2	x	0	6	-8	x	i	-1
Nn1cc(-c2ccccc2)nc1SCC(=O)NCCN1C(=O)CSC1=O	-12	-120	0	4	-12	-21	i	5
Cc1nn(CC(C)C)c(Cl)c1C(=O)NCC(C)(C)N1CCOCC1	x	-20	6	6	x	-13	x	x
Cc1onc(-c2c(Cl)cccc2Cl)c1C(=O)N1C(C)CCCC1C (stereo unspecified)	0	10	-1	1	12	-11	i	-14
COc1cccc(Nc2c(F)c(OC)c(F)c(F)c2C(=O)O)c1	46	x	1	0	-3	-16	i	44
NC(=O)CC[C@H](NC(=O)c1ccc(F)cc1)C(=O)OCC(=O)NCc1ccc2c(c1)OCO2	x	-17	9	8	x	-1	x	x
CNc1nc(NC)c2cn[nH]c2n1	x	19	5	9	x	-13	x	x
Cc1ccc(-c2[nH]ncc2C(=O)c2ccc(Br)cc2)c(O)c1	1	26	0	-3	18	x	i	-6
Cc1cccc(CNC(=O)CCn2ccc3cc(S(=O)(=O)N4CCCC4)ccc32)c1	-8	8	-2	0	-5	-2	i	7
O=C(Nc1ccc(F)cc1)c1cccnc1	2	9	1	3	8	-10	i	-12
N#Cc1c(-c2ccccc2Cl)c2c([nH]c1=O)-c1ccccc1OC2	-11	-7	2	-3	-7	-15	i	-15
CN(C)Cc1ccccc1Cc1ccccc1	0	x	2	1	-15	-21	i	-1
CCCOc1ccc(C2C(C(=O)c3ccc(C)o3)=C(O)C(=O)N2Cc2ccco2)cc1 (stereo unspecified)	10	x	-1	-1	19	-15	i	-4
CC(C)NC(=O)C1CCN(Cc2cnn(-c3ccccc3)c2-n2cccc2)CC1	-1	x	1	3	9	9	i	4
CN(c1cccc(NS(=O)(=O)c2cccs2)c1)S(C)(=O)=O	1	31	2	4	x	-18	i	7
COc1ccc(NC(=O)COC(=O)/C=C/c2ccccc2[N+](=O)[O-])cc1OC	-5	1	-3	2	1	4	i	2
COC(=O)c1cc(=O)nc2sc(-c3ccc(F)cc3)nn12	-4	x	0	2	-8	-16	i	-11
NC(=O)CSc1ncnc2c1cnn2Cc1ccccc1	2	-62	2	-6	-15	-5	i	-11
CCOC(=O)c1cnc(-n2[nH]c(C)c(Cc3ccccc3)c2=O)[nH]c1=O	0	-8	6	3	39	x	i	66	eIF4H FP inh retest=0;PABP FP inh retest=-2
CC(=O)c1c(C)[nH]c(C(=O)OCC(=O)c2ccc(C)s2)c1C	x	x	9	-10	5	-11	x	x
O=C(O)CCc1nnc(SCC(=O)Nc2ccc(Cl)c(C(F)(F)F)c2)[nH]c1=O	6	8	-2	1	5	x	i	5
CCCCC1CCC(C(=O)N(CCOC)c2c(N)n(CCCC)c(=O)[nH]c2=O)CC1 (stereo unspecified)	x	9	-4	-4	-13	x	i	x
Cc1c(C(=O)N2CCCC2)c(S(=O)(=O)Nc2cccc(Br)c2)c(C)n1C	5	1	-4	0	-12	-30	i	-2
COc1ccc(OC)c(/C=C/C(=O)NC2=NCCS2)c1	-9	-3	-1	0	-7	-15	i	-2
CCOC(=O)C(C)Oc1ccc(NC(=O)C(Cl)Cl)cc1 (stereo unspecified)	11	4	1	0	-13	x	i	-12
N#Cc1c(Cl)nc(N/N=C/c2ccccc2)c(Cl)c1Cl	-3	0	1	1	5	x	i	2
CCCC(=O)Nc1ccc2c(c1)nc1n2CCN(C2CCCCC2)C1	18	-2	2	13	20	x	i	7
COc1cc(C2NC(=O)NC(C)=C2C(=O)OCc2ccc(C)cc2)cc(OC)c1O (stereo unspecified)	-12	5	-7	0	2	3	i	-2
CC(C)OC(=O)CC1C(=O)NCCN1C(=O)COc1ccc(C(C)(C)C)cc1 (stereo unspecified)	7	4	1	2	3	1	i	-2
COC(=O)c1nn(-c2ccc(OC)cc2)c(=O)cc1Sc1ccc(C)cc1	-3	3	3	6	4	-14	i	0
Cc1[nH]c(=S)[nH]c(=O)c1Cc1ccccc1	3	x	9	2	-11	-5	x	-2
CC1(C)Cc2cccc(OCC(=O)NCc3ccccc3)c2O1	9	8	-5	-3	x	-25	i	-3
CC12C=CC3(CN(Cc4ccccc4)C(=O)C3C1C(=O)NC1CC1)O2 (stereo unspecified)	-6	-16	6	7	1	x	i	-1
CC(C)(C)OC(=O)NCc1ccc(CNC(=O)c2nc[nH]c2C(=O)N2CCc3ccccc3C2)cc1	x	21	7	-5	-4	4	x	x
COc1ccc(OC)c(NC(=O)CSc2nnc(Cc3cccn3C)n2CCc2ccccc2)c1	-3	17	-1	-2	-4	-17	i	-1
CN(CC(=O)Nc1ccc(F)cc1)C(=O)COC(=O)c1cc(S(=O)(=O)N(C)C)ccc1N1CCCC1	x	-7	-1	1	8	19	x	x
CCOc1ncccc1C(=O)N1CCN(Cc2ccc3c(c2)OCO3)CC1	-2	x	-3	-2	-12	-38	i	-15
Cn1c(=O)[nH]c(=O)c2c1nc(SCC(=O)O)n2CCCc1ccccc1	1	-3	3	3	-3	-19	i	-12
O=C(Oc1ccc(C(=S)N2CCOCC2)cc1)c1ccccc1[N+](=O)[O-]	8	-2	0	0	-7	-17	i	14
CCC(C)NC(=O)CCn1c(-c2ccc(F)cc2)cc(C(C)=O)c1C (stereo unspecified)	65	3	-5	1	-7	x	i	-3	eIF4H FP inh retest=-3;PABP FP inh retest=-2
O=C(Nc1cccc(S(=O)(=O)N2CCOCC2)c1)c1ccc(N2CCOCC2)c([N+](=O)[O-])c1	22	3	5	2	6	x	i	-10
CC(C)NC(=O)N(C)C[C@H]1Oc2ccc(NC(=O)C3CCCCC3)cc2C(=O)N([C@H](C)CO)C[C@@H]1C	x	-7[16.7 µM]	0	-4	x	14&8	x	x
COCCN(C(=O)COC(=O)/C=C/c1ccc(C)o1)c1c(N)n(Cc2ccccc2)c(=O)[nH]c1=O	-2	-7	-2	5	x	-3	i	-2
COc1cccc(C#Cc2cnc3c(c2)C(=O)N([C@@H](C)CO)C[C@H](C)[C@H](CN(C)C(=O)C2CCC2)O3)c1	x	-5	0	1	x	69&9&57	x	x
CC(=O)N1N=C(c2cccc([N+](=O)[O-])c2)OC1(C)CC(=O)Nc1ccccc1 (stereo unspecified)	-7	-7	0	1	-3	2	i	-12
COc1cc(CO)c(Br)cc1OCC(=O)Nc1ccccc1C	4	-4	5	3	-9	x	i	80	eIF4H FP inh retest=-1;PABP FP inh retest=7
O=C1Nc2c(Br)cc(Br)cc2C1(O)N1CCOCC1 (stereo unspecified)	3	i	-8	5	17	10	i	0
N#CCCN(C(=O)COC(=O)c1ccc(S(=O)(=O)Nc2ccccc2)cc1)c1ccccc1	10	12	-2	-2	-8	x	i	-5
CC1Cc2nc(SCC(=O)NCC3CCCO3)n(Cc3ccccc3)c(=O)c2S1 (stereo unspecified)	-6	4	3	2	5	-9	i	-2
Cc1ccc(S(=O)(=O)N2CCN(C(=O)COC(=O)CNC(=O)c3ccc(C(C)(C)C)cc3)CC2)c(C)c1	x	x	2	-1	10	-8	x	x
Cc1ccc(-c2c[n+](CC(=O)Nc3ccc(C)cc3C)c3n2CCC3)cc1	-9	-3	-2	-1	-2	-2	i	0
CCOc1cc(N)c(Cl)cc1C(=O)NCC1CN(Cc2ccc(F)cc2)CCO1 (stereo unspecified)	x	-50	5	2	18	-7	i	x
Cc1c(C(=O)Nc2ccc3c(c2)OCO3)sc2ncn(CC(=O)N3CC(C)CC(C)C3)c(=O)c12 (stereo unspecified)	-4	-13	1	0	x	-10	i	-9
CCc1nc2ccc(C(=O)Nc3ccc(OC)c(OC)c3)cn2c1N(C)Cc1cccs1	x	18	5	-4	x	-13	x	x
O=C(OC(C(=O)NC1CCCCC1)c1ccccc1)c1ccco1 (stereo unspecified)	13	-21	3	5	x	-18	i	3
COc1ccc(C(=O)Nc2cccc(-c3ccc(N4CCOCC4)nn3)c2)cc1OC	x	-24	6	2	x	-6	i	x

13 entries already listed, sorted by length of the SMILES, rising.
SMILES	PABP FP inh	HIV Env fusion	MT1-MMP act inh	MT1-MMP act inh RFP	CSC inhib	Yeast UUG start	Rce1 inhib	eIF4H FP inh	others
O=C1Nc2c(Br)cc(Br)cc2C1(O)N1CCOCC1 (stereo unspecified)	3	i	-8	5	17	10	i	0
COc1cc(CO)c(Br)cc1OCC(=O)Nc1ccccc1C	4	-4	5	3	-9	x	i	80	eIF4H FP inh retest=-1;PABP FP inh retest=7
O=C(OC(C(=O)NC1CCCCC1)c1ccccc1)c1ccco1 (stereo unspecified)	13	-21	3	5	x	-18	i	3
CCC(C)NC(=O)CCn1c(-c2ccc(F)cc2)cc(C(C)=O)c1C (stereo unspecified)	65	3	-5	1	-7	x	i	-3	eIF4H FP inh retest=-3;PABP FP inh retest=-2
Cn1c(=O)[nH]c(=O)c2c1nc(SCC(=O)O)n2CCCc1ccccc1	1	-3	3	3	-3	-19	i	-12
CC1Cc2nc(SCC(=O)NCC3CCCO3)n(Cc3ccccc3)c(=O)c2S1 (stereo unspecified)	-6	4	3	2	5	-9	i	-2
Cc1ccc(-c2c[n+](CC(=O)Nc3ccc(C)cc3C)c3n2CCC3)cc1	-9	-3	-2	-1	-2	-2	i	0
COc1ccc(C(=O)Nc2cccc(-c3ccc(N4CCOCC4)nn3)c2)cc1OC	x	-24	6	2	x	-6	i	x
CCc1nc2ccc(C(=O)Nc3ccc(OC)c(OC)c3)cn2c1N(C)Cc1cccs1	x	18	5	-4	x	-13	x	x
CC(=O)N1N=C(c2cccc([N+](=O)[O-])c2)OC1(C)CC(=O)Nc1ccccc1 (stereo unspecified)	-7	-7	0	1	-3	2	i	-12
Cc1c(C(=O)Nc2ccc3c(c2)OCO3)sc2ncn(CC(=O)N3CC(C)CC(C)C3)c(=O)c12 (stereo unspecified)	-4	-13	1	0	x	-10	i	-9
O=C(Nc1cccc(S(=O)(=O)N2CCOCC2)c1)c1ccc(N2CCOCC2)c([N+](=O)[O-])c1	22	3	5	2	6	x	i	-10
CC(C)NC(=O)N(C)C[C@H]1Oc2ccc(NC(=O)C3CCCCC3)cc2C(=O)N([C@H](C)CO)C[C@@H]1C	x	-7[16.7 µM]	0	-4	x	14&8	x	x

(list continues)
SMILES	PABP FP inh	HIV Env fusion	MT1-MMP act inh	MT1-MMP act inh RFP	CSC inhib	Yeast UUG start	Rce1 inhib	eIF4H FP inh	others
CCC(C)NC(=O)CSc1ccc(S(=O)(=O)N(C)C2CCCCC2)cn1 (stereo unspecified)	x	x	4	-11	-8	-13	x	x
Cc1nc(SCC(=O)N2CCC(C(N)=O)CC2)n[nH]1	0	-27	0	3	14	x	i	-9
Cc1ccc(C2(C)NC(=O)N(CC(=O)Nc3cc(S(=O)(=O)N(C)C)ccc3C)C2=O)cc1 (stereo unspecified)	6	-28	3	0	10	-9	i	-9
COc1ccccc1N(CC(=O)N1CCCCC1C)S(=O)(=O)c1ccc(Cl)cc1 (stereo unspecified)	x	16	-2	1	x	-1	x	x
O=[N+]([O-])c1ccc(C2=Nc3cc(Cl)ccc3OC2)cc1	13	-24	0	-1	29	x	i	4
O=C(CSc1nc2ccccc2s1)Nc1ncccn1	7	x	-4	2	-23	-10	i	-2

Screens from PubChem.
